Compound activity: PubChem BioAssay, several laboratories
WNV protease inh = blocks West Nile virus NS2B-NS3 protease activity. P06935. WNV NS2B-NS3 protease, fluorogenic substrate Ex360/Em465; active compounds read low. z-score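 (tested at a level between 10 and 100 µM)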. actives 0.18% (n = 65,000). AID 577;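 active = z-score at -3 or under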;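 also: score is relative to mean and spread of the compound wells of a plate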
Target sequence (P06935 1371-1501 limits assumed): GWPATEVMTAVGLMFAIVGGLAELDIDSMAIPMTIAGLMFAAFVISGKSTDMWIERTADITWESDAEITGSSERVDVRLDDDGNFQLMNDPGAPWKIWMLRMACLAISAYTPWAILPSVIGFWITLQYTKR
Target sequence (P06935 1502-1679 limits assumed): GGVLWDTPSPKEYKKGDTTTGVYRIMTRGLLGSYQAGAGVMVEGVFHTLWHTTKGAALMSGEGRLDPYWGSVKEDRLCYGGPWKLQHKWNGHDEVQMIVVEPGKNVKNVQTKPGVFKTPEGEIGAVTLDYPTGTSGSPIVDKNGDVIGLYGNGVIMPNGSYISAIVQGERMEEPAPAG
MT1-MMP reporter = MT1-MMP gene expression reporter suppression – cell-based, luciferase reporter, luminescence (AID 618); MT1-MMP promoter luciferase reporter cells, luminescence; calls from a first round at 10 µM; hits with a dose series show EC50 in µM; actives 0.62% (n = 87,000);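 active = over half of the reporter light lost at 10 µM or EC50 under 50 µM; inactive = the rest and hits that failed the dose series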;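 also: actives suppress MT1-MMP promoter-driven transcription so potencies describe inhibitors; HT1080 fibrosarcoma cells; overnight exposure; toxic or luciferase-blocking compounds were not removed from the actives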
Hsc70 = Hsc70 inhibitors, probe displacement, primary screen, biochemical, fluorescence polarization (AID 568); 83,000 tested, under 10 active; Hsc70 fluorescence polarization, probe displacement; higher % means a stronger effect; strong numbers were not always called active; one-dose displacement, % at 20 µM; IC50 in µM for titrated hits;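 active = displacement above 50% without optical interference and an IC50 on retest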;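 also: ATPase domain with a fluorescein-tagged ATP probe; 0% = vehicle and 100% = excess ADP; read after one hour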
* = called active by the depositor; i = inactive; . = no result given. Not all compounds are listed; rates above refer to the full screens.

SMILES	WNV protease inh	MT1-MMP reporter	Hsc70
CCn1cnc2c1c(=O)n(CC(=O)Nc1cc(C)on1)c(=O)n2Cc1ccccc1	-0.97	i	0.9%
CN1C(=O)CS(=O)c2ccc(C(=O)NCCC3=CCCCC3)cc21 (stereo not given)	1.21	i	2.1%
Cc1ccc2c(c1)nc(NCCO)n2C	-0.92	i	-6.2%
CC(C)c1nc2ccc(C(=O)O)cc2[nH]1	.	i	-1.1%
O=C(NCCCN=C1NS(=O)(=O)c2ccccc21)c1ccc(S(=O)(=O)N2CCOCC2)cc1	.	i	3.2%
CC(C(=O)O)n1c(C(F)(F)F)nc2ccccc21 (stereo not given)	.	i	2.7%
CCCOC(=O)c1ccc(NC(=O)Oc2ccccc2)cc1	.	i	6.4%
CCCc1nc2ccccc2c2nc(N)nn12	-0.79	i	2.2%
COc1cc(Nc2cc(C)nc3nc(C)nn23)cc(OC)c1OC	-1.38	i	-1.9%
C=CCn1c(Cc2ccc(OCC)cc2)nnc1SCC(N)=O	-1.57	i	3.8%

The final two entries of the section above lead into the next:
SMILES	WNV protease inh	MT1-MMP reporter	Hsc70
COc1cc(Nc2cc(C)nc3nc(C)nn23)cc(OC)c1OC	-1.38	i	-1.9%
C=CCn1c(Cc2ccc(OCC)cc2)nnc1SCC(N)=O	-1.57	i	3.8%
Cc1ccc(S(=O)(=O)N2CCN(C(=O)c3c(C)nn(-c4ccccc4)c3Cl)CC2)cc1	0.11	i	3.3%
Cn1c(SCC(=O)c2ccc3c(c2)OCO3)nnc1-c1ccccn1	-0.08	i	8.2%
Nc1cc(C(F)(F)F)ccc1C(=O)O	2.74	i	1.1%
CC(C)(C)c1ccc(S(=O)(=O)N2CCCCC2C(=O)NCc2ccccn2)cc1 (stereo not given)	0.84	i	4.7%
Cc1ccc2c(c1)NC(=O)C(CC(=O)NCCN(C)C)O2 (stereo not given)	1.13	i	0.7%
C=CCc1c(C)nc(N)[nH]c1=O	.	i	-0.6%
CC1CCN(C(=O)C2CCCN(S(C)(=O)=O)C2)CC1 (stereo not given)	1.07	i	-1.9%
CCOC(=O)C(CCSC)NC(=O)CN (stereo not given)	-0.2	i	-4.9%
CCCn1c(=N)c(C(=O)NC2CCCC2)cc2c(=O)n3cccc(C)c3nc21	.	i	-2.3%
CCCCSc1nc2sc3c(c2c(=O)[nH]1)CCC3	.	i	-1.1%

Next part; the last 5 above are carried over.
SMILES	WNV protease inh	MT1-MMP reporter	Hsc70
C=CCc1c(C)nc(N)[nH]c1=O	.	i	-0.6%
CC1CCN(C(=O)C2CCCN(S(C)(=O)=O)C2)CC1 (stereo not given)	1.07	i	-1.9%
CCOC(=O)C(CCSC)NC(=O)CN (stereo not given)	-0.2	i	-4.9%
CCCn1c(=N)c(C(=O)NC2CCCC2)cc2c(=O)n3cccc(C)c3nc21	.	i	-2.3%
CCCCSc1nc2sc3c(c2c(=O)[nH]1)CCC3	.	i	-1.1%
Cn1c(C(=O)OC(C(=O)NCc2ccco2)c2ccncc2)cc2sccc21 (stereo not given)	.	i	1.5%
COc1ccc(C2N(c3cccc(Cl)c3)C(=O)C3CCCN32)cc1 (stereo not given)	0.15	i	-1.0%
Cc1cc(C(=O)Nc2sc3c(c2C#N)CCCCC3)cs1	-0.42	i	-8.2%
Cc1ccc(C)c(NS(=O)(=O)c2ccc(OCC(=O)N3CCOCC3)cc2)c1	-1.2	i	2.7%
CCOC(=O)c1cc2cc(OC)ccc2[nH]1	1.02	i	4.1%
C=CCOC(=O)C1=C(C)NC(SCC(=O)Nc2nccs2)=C(C#N)C1c1ccc(Cl)cc1 (stereo not given)	.	i	1.8%
Cc1ccc(-c2n[nH]c(=S)n2/N=C/C=C\c2ccccc2[N+](=O)[O-])cc1	.	i	-1.4%
COc1cccc(Cn2nnc(C(=O)NCc3ccc(F)cc3)c2N)c1	-0.23	i	1.0%
Cc1nn(C2CCS(=O)(=O)C2)c(Cl)c1/C=C/C(=O)OCC(=O)Nc1ccccc1OC(F)F (stereo not given)	.	i	-2.2%
CCCC(=O)Nc1ccc2c(c1)nc1n2CCSC1	0.29	i	3.8%
COc1ccc(C2CC(c3ccc(Cl)cc3Cl)n3nc(N)nc3N2)cc1 (stereo not given)	-0.51	i	6.6%
CCOC(=O)C1=C(c2ccccc2)O/C(=C(/C(=O)OC)C(F)(F)F)S1	.	i	0.8%
Cc1ccc(C(=O)NCc2ccco2)cc1S(=O)(=O)Nc1cccc(C)c1C	.	i	-3.5%
Cc1cc(C)nc(-n2nc(C)cc2NC(=O)c2ccc(Br)o2)n1	-0.00143	i	0.4%
Cc1cc(-c2csc(N)n2)c(C)n1CCc1ccccc1	-1.57	13.2µM*	-8.1%
CCC(C)C(NC(=O)C(C)NC(=O)CNC(=O)CNC(=O)OCc1ccccc1)C(=O)OC (stereo not given)	.	i	0.4%
CCCN(Cc1ccccc1)S(=O)(=O)c1ccc(N2C(=O)CCC2=O)cc1	0.78	i	-1.1%
COc1ccc(CCN2C(=O)C(O)=C(C(=O)c3ccco3)C2c2cccs2)cc1OC (stereo not given)	-1.18	i	1.0%
Cn1c(N)c(C(=O)COC(=O)CCC(=O)c2cccs2)c(=O)n(C)c1=O	-0.04	i	-9.7%
O=C(CN1CCC(c2nc3ccccc3[nH]2)CC1)NCc1ccc2c(c1)OCO2	0.23	i	-1.0%
CC(C)Cn1cc(C(=O)NCC2CCCO2)c2c3ccccc3n(C)c2c1=O (stereo not given)	-0.5	i	-3.1%
O=C(NCc1ccco1)c1sc2cc(F)ccc2c1Cl	.	i	-1.6%
COCc1nc2ccccc2n1Cc1ccccc1	1.09	i	-3.8%
O=C(COC(=O)c1ccccc1Oc1ccccc1)NCc1ccco1	-1.42	i	0.8%
Clc1cccc(-c2nn3c(-c4cccc(Cl)c4)nnc3s2)c1	-1.23	i	-7.3%
CCOc1ccccc1Oc1c(C)oc2c(CN3CCN(CCO)CC3)c(O)ccc2c1=O	1.47	i	-0.3%
O=C(NCc1ccccn1)c1ccc(/C=N/O)nc1	-0.32	i	-1.8%
COc1ccc(C)cc1S(=O)(=O)N(C)CC(=O)N1CCN(C)CC1	.	i	-3.3%
CCc1ccc(NC(=O)CN(c2ccc3c(c2)OCO3)S(=O)(=O)c2c(C)noc2C)cc1	-1.16	i	2.1%
CCn1c(C(=O)OC)cc2c1ccn2-c1ccc(F)cc1	0.15	i	2.6%
Cc1cc2c(=O)n(CC(=O)NCC(=O)N3CCN(Cc4ccccc4)CC3)cnc2s1	0.79	i	-0.1%
CCOc1ccc2nc(NCCCNS(=O)(=O)c3ccc(F)cc3)c(C#N)cc2c1	.	i	5.2%
CCc1cc2c(SCC(=O)c3cccs3)ncnc2s1	-0.65	i	-3.8%
Cc1ccc(C(c2nnnn2C(C)(C)C)N2CCc3ccccc3C2)cc1 (stereo not given)	-1.12	i	-6.2%
CCOC(=O)C1CCN(C(=O)Nc2ccc(OC)c(OC)c2)CC1	-0.41	i	-1.8%
CCOc1ccc(-n2nc(C(=O)N3CCOCC3)c3ccccc3c2=O)cc1	1.14	i	-16.4%
CCOC(=O)C1=C(C)NC(=O)C1(NC(=O)c1cccnc1)C(F)(F)F (stereo not given)	1.07	i	7.4%
COc1ccc(-c2cc(C(F)(F)F)nc(SCC(=O)N3CC(C)OC(C)C3)n2)cc1OC (stereo not given)	-0.67	i	4.9%
Cc1nc2c(c(=O)n1CC1CCCO1)c1nc3ccccc3nc1n2CCC(C)C (stereo not given)	0.6	i	-3.5%
Cn1c(=O)[nH]c(=O)c2c1nc(NCCCO)n2CCCc1ccccc1	-1.75	i	-1.0%
Cc1ccc(S(=O)(=O)c2ccccc2)cc1S(=O)(=O)N1CCOCC1	.	i	3.1%
CC(=O)NCCOc1cccc(OCCNC(C)=O)c1	-0.1	i	7.1%
CC(C)(C)c1cc(=O)n2c(nc3ccccc32)[nH]1	.	i	-2.7%
COc1cc(NC(=O)C2CCN(S(=O)(=O)c3cnc[nH]3)CC2)cc(OC)c1OC	.	i	-2.3%
Cc1ccc(S(=O)(=O)N2CCN(C(=O)N3CCOCC3)C2C(C)C)cc1 (stereo not given)	-1.36	i	4.4%
O=C(Nc1ccc(NC(=O)C2CCCN2C(=O)OCc2ccccc2)cc1)c1ccco1 (stereo not given)	-0.84	i	-0.9%
O=C(CN(c1ccc(F)cc1)S(=O)(=O)c1ccc2c(c1)OCCO2)Nc1cccnc1	-0.19	i	11.0%
CC(C)C1CC(=O)NC(SCC(=O)Nc2ccc(Br)cc2)=C1C#N (stereo not given)	-0.9	i	1.2%
O=C(CSc1ccccc1)Nc1ccccc1N1CCOCC1	0.96	i	3.7%
O=C1C2CCCN2C(c2ccc(F)c(F)c2)N1c1cccc(Cl)c1 (stereo not given)	-0.35	i	4.8%

Next part:
SMILES	WNV protease inh	MT1-MMP reporter	Hsc70
COCCN(CCOC)S(=O)(=O)c1ccc(C(=O)NC2CCN(Cc3ccccc3)CC2)cc1	0.82	i	-3.2%
CCOc1ccccc1C(=O)N(Cc1ccco1)C1CCS(=O)(=O)C1 (stereo not given)	-1.03	i	-3.3%
CCOC(=O)CCCCC(=O)c1[nH]c(=O)[nH]c1Cn1cnc2ccccc21	-0.6	i	-1.7%
Cc1nc(SC2CC(=O)N(c3ccccc3)C2=O)nc2c1CCCC2 (stereo not given)	2.1	i	-1.2%
Cc1nn(CCCC(=O)N2CCc3ccccc3C2)c(=O)c2cc3sccc3n12	0.37	i	3.3%
O=C(c1cccc2ccccc12)N1CCC(N2CCN(c3ccccc3)CC2)CC1	0.26	i	3.7%
CCc1nnc(NC(=O)CSc2nc(-c3ccc(OC)cc3)ns2)s1	0.95	i	-7.4%
CS(=O)(=O)n1nc(OC(=O)c2cccc3ccccc23)cc1N	0.86	i	-3.1%
C/C(=N/NC(=O)c1cc2ccccc2cc1O)C1C(=O)c2ccccc2C1=O	.	i	-4.5%
Cn1c(SC2=CS(=O)(=O)c3ccccc32)nc2ccccc21	-0.25	i	1.6%
CC(C)(C)N1C(=O)c2ccccc2NC(=O)N1Cc1ccccc1	.	i	4.0%
O=C(CCN1CCOCC1)Nc1c(-c2ccccc2)c2cc(Br)ccc2[nH]c1=O	0.53	i	-1.7%
O=C(c1ccc(COc2ccccc2Cl)o1)N1CCN(c2ccccc2)CC1	-0.07	i	0.7%
CCCCCCC(=O)N1CCN(c2cc3c(cc2F)c(=O)c(C(=O)O)cn3CC)CC1	-0.46	i	6.9%
c1ccc2cc3[nH]c(CN4CCCCC4)nc3cc2c1	0.11	i	3.5%
COc1ccc(CCNc2oc(-c3ccccc3OC)nc2C#N)cc1	0.38	i	0.4%
O=C(Nc1nccs1)C1CCCN(S(=O)(=O)c2cccc3cccnc23)C1 (stereo not given)	2.66	i	0.4%
O=C1C(=O)N(CCCn2ccnc2)C(c2cccnc2)/C1=C(/O)c1ccc(Br)cc1 (stereo not given)	-0.7	i	0.0%
COc1cc(-c2nnc(-c3ccc(N4CCOCC4)cc3)o2)cc(OC)c1OC	-0.83	i	-7.9%
OCCN1CCN(CC#CCn2c3ccccc3c3ccccc32)CC1	0.11	i	-2.0%
CCOC(=O)c1sc2cccc(F)c2c1N	-0.17	i	-2.7%
C=C(C)CN(CC)CCC(=O)Nc1ccc(OC)cc1OC	-0.63	i	-9.1%
CCN(C1CCCCC1)S(=O)(=O)c1ccc(S(=O)(=O)NCc2ccncc2)cc1	-0.95	i	-0.9%
COc1ccc(C2C(C(=O)Nc3cc(C)on3)c3ccccc3C(=O)N2C)cc1 (stereo not given)	-0.78	i	-2.0%
COC(=O)c1c(NC(=O)c2c(-c3ccccc3Cl)noc2C)sc2c1CCC2	.	i	-14.0%
COc1ccc2nnc(-c3ccccc3)n2n1	0.81	i	-6.5%
O=C1CCC([N+](=O)[O-])C(c2ccccc2Cl)N1 (stereo not given)	.	i	0.8%
O=C(COC(=O)Cc1cccs1)Nc1ccccc1	-1.81	i	-0.9%
Cc1cc(NC(=O)c2ccccc2Cl)no1	.	i	3.6%
CCC1(c2ccc(F)cc2)NC(=O)N(CC(=O)N2CCOCC2)C1=O (stereo not given)	-0.71	i	-4.8%

Part of the list above, as comma-separated lines.
molecule,WNV protease inh,MT1-MMP reporter,Hsc70
Cc1ccc(S(=O)(=O)N2CCN(C(=O)N3CCOCC3)C2C(C)C)cc1 (stereo not given),-1.36,i,4.4%
O=C(Nc1ccc(NC(=O)C2CCCN2C(=O)OCc2ccccc2)cc1)c1ccco1 (stereo not given),-0.84,i,-0.9%

(listing goes on)
SMILES	WNV protease inh	MT1-MMP reporter	Hsc70
Cc1cc(NC(=O)CCC(=O)N(CC2CCCO2)C(C(=O)NC2CCCC2)c2cccnc2)no1 (stereo not given)	.	i	-1.1%
CS(=O)(=O)N1CCN(C(=O)c2ccccc2)C1	1.74	i	3.0%
Cc1nc(=S)c2ccccc2[nH]1	.	i	0.6%
CN(CCCn1c(=S)[nH]c2ncccc2c1=O)Cc1ccccc1	0.53	i	2.9%
N=C(N)N1CCc2ccccc2C1	.	i	1.0%
CC(C)(C)C1CCc2c(sc(NC(=O)c3cccs3)c2C(N)=O)C1 (stereo not given)	.	i	3.4%
Cc1cc2ncn(CCOc3ccccc3)c2cc1C	.	i	-0.7%
CCOC(=O)c1c(NC(=O)c2cccs2)sc(CC)c1-c1cccs1	.	i	1.4%

Look-ups from the list:
CCOC(=O)c1c(NC(=O)c2cccs2)sc(CC)c1-c1cccs1 @ Hsc70 = 1.4%
CS(=O)(=O)N1CCN(C(=O)c2ccccc2)C1 @ Hsc70 = 3.0%
